Screening data deposited in PubChem by National Center for Advancing Translational Sciences (NCATS).
2A firefly – lowers the firefly signal of an FMDV 2A StopGo reporter | HEK cells with a luciferase reporter of 2A StopGo recoding | 0.23% of 120,000 active | AID 1745856 | Potency, µM (titrated, usually from 57.5 µM), for the others: at the top dose signal change, negative = less light; active = well fitted falling curve with a large enough effect; inconclusive = small, poorly fitted or top-dose-only effect; inactive = no such curve, though single readings can be large or run the other way; note: nearly all actives have a fitted effect of over 60% in size; overnight with compound
2A Renilla – FMDV 2A StopGo reporter, Renilla signal | AID 1745857 | HEK cells with a luciferase reporter of 2A StopGo recoding | Potency, µM (top dose mostly 57.5 µM), for the others: top-dose signal change, negative = less light | 0.32% of 120,000 active; active means well fitted falling curve with a large enough effect; inconclusive means small, poorly fitted or top-dose-only effect; inactive means no such curve, though single readings can be large or run the other way; note: nearly all actives have a fitted effect of over 55% in size; overnight with compound
The depositor's hits bear a star; ? = inconclusive; & = joins results of further samples; [ ] = dose if it differs, or a comment. % is set by controls: 0 for no effect and ±100 for the full control effect; potency is the fitted concentration of half-maximal effect. A portion of the library; rates above refer to the full screens.

Structure | 2A firefly | 2A Renilla
Cc1ccc(CCNC(=O)CCCn2nc(C)c3c(C)n(-c4ccc(C)cc4)nc3c2=O)cc1 | -18% | -12%
Cn1c(=O)c2nc(SCC(=O)c3ccc(Cl)cc3)n(C)c2n(C)c1=O | 11% | 5%
CCN(CC)CCCNC(=O)c1ccc2nc(CCc3ccccc3)oc2c1 | 28% | -15%
CC(NC(=O)c1ccc(S(=O)(=O)N(C)C)cc1)c1cc2ccccc2o1 (centres undefined) | 0% | 7%
CCOC(=O)c1ccc(NC(=O)CSc2nc3ccccc3c(=O)n2CCNC(C)=O)cc1 | -17% | -10%
O=C(CSc1ncc2c(n1)-c1ccccc1N(Cc1ccc(F)cc1)S2(=O)=O)NCCc1ccccc1 | -16% | -12%
Cc1ccc(CNC(=O)COc2ccc3c(C)cc(=O)oc3c2)cc1 | 13% | 1%
COc1ccc(S(=O)(=O)N2CCN(C(=O)NC3CCCCC3)CC2)cc1 | 25% | -2%
CCCN(C(=O)CCNC(=O)Cn1cnc2ccccc2c1=O)c1cccc(C)c1 | -21% | -14%
Cc1ccc(C)c(CN2C(=O)c3ccccc3S(=O)(=O)c3ccc(C(=O)NCc4ccccc4)cc32)c1 | 3% | 13%
CC(C)OCCCN(Cc1ccco1)C(=O)c1cc2c(s1)-c1ccccc1OC2 | 23% | 64%[activator]
O=C1c2ccccc2C(=Cc2cccs2)c2ccccc21 | -19% | ?

Single records, from the list above. Order of values: 2A firefly, 2A Renilla
Shown for `Cc1ccc(C)c(CN2C(=O)c3ccccc3S(=O)(=O)c3ccc(C(=O)NCc4ccccc4)cc32)c1` = 3%, 13%
Shown for `CCN(CC)CCCNC(=O)c1ccc2nc(CCc3ccccc3)oc2c1` = 28%, -15%
Shown for `Cn1c(=O)c2nc(SCC(=O)c3ccc(Cl)cc3)n(C)c2n(C)c1=O` = 11%, 5%

As a short view, some entries already given.
Structure | 2A firefly | 2A Renilla
O=C(CSc1ncc2c(n1)-c1ccccc1N(Cc1ccc(F)cc1)S2(=O)=O)NCCc1ccccc1 | -16% | -12%
Cc1ccc(CNC(=O)COc2ccc3c(C)cc(=O)oc3c2)cc1 | 13% | 1%
COc1ccc(S(=O)(=O)N2CCN(C(=O)NC3CCCCC3)CC2)cc1 | 25% | -2%
CCCN(C(=O)CCNC(=O)Cn1cnc2ccccc2c1=O)c1cccc(C)c1 | -21% | -14%
Cc1ccc(C)c(CN2C(=O)c3ccccc3S(=O)(=O)c3ccc(C(=O)NCc4ccccc4)cc32)c1 | 3% | 13%
CC(C)OCCCN(Cc1ccco1)C(=O)c1cc2c(s1)-c1ccccc1OC2 | 23% | 64%[activator]
O=C1c2ccccc2C(=Cc2cccs2)c2ccccc21 | -19% | ?

Going on with the list:
Structure | 2A firefly | 2A Renilla
CN(CC(=O)Nc1c(F)cccc1F)Cc1ccccc1 | 20% | 9%
Cc1ccc(NC(=O)Cc2nc(-c3cc(C)n(-c4cc(C)on4)c3C)cs2)cc1 | 48%[activator] | 1%
CSc1ccc(CCNC(=O)c2ccc(-n3c(C)cc4c3CCC(C)C4)cc2)cc1 (centres undefined) | -14% | -6%
CC(=O)Nc1ccc(NC(=O)c2ccc3c(c2)N(Cc2cccc(Cl)c2)C(=O)c2ccccc2S3(=O)=O)cc1 | -15% | 67%[activator]
CCCc1cc(NCc2cccnc2)n2nc(C)c(-c3ccccc3)c2n1 | 2% | -2%
COc1cccc(Nc2nc(-c3ccccc3O)nc3ccccc23)c1 | 41%[activator] | -2%
CCN(CC)c1ccc(NC(=O)CN2C(=O)c3cccnc3Oc3ccccc32)c(C)c1 | -8% | -20%
CCCCOCCCNC(=O)CCC(=O)NC1CCCCC1 | -2% | -2%
CNC(=O)CSc1nc(C)nc2sc3c(c12)CCCC3 | 16% | 3%
O=C(Nc1ccc(Cl)cc1)C1CCN(c2cnc3ccccc3n2)CC1 | 0% | 8%
O=C(NC1CC(=O)N(c2ccc(F)cc2)C1)c1cc2ccccc2o1 (centres undefined) | -21% | -26%
CN(Cc1c(F)cccc1Cl)S(=O)(=O)c1ccc2c(c1)CCC2 | 6% | 217%[activator]
CCOC(=O)c1cc2c(=O)n3ccccc3nc2n(CCOC)c1=NC(=O)c1c(-c2c(F)cccc2Cl)noc1C | -12% | -10%
CCCn1cc(S(=O)(=O)c2cc(C)ccc2C)c(=O)c2cc(F)c(N3CCN(CC)CC3)cc21 | -17% | 28%
O=C(CCc1ccsc1)N(Cc1ccco1)C1CC1 | -4% | 24%
Cc1cccc(NC(=O)Cn2nnc(C(=O)NCc3cccs3)c2N)c1 | -19% | -11%
COc1ccc(NC(=O)/C(C#N)=C/c2ccc(C)o2)cc1 | 191%[activator] | -6%
Nc1nc(N2CCOCC2)nc2c1C(C(=O)Nc1ccc(Cl)c(Cl)c1)CC(=O)N2 (centres undefined) | 5% | -4%
COc1ccc(S(=O)(=O)N(CC(=O)NCCN2CCOCC2)c2ccc(F)cc2)cc1 | -15% | -11%
Cc1c(-c2ccccc2)c(=O)oc2ccc(OS(=O)(=O)c3ccccc3)cc12 | 79%[activator] | ?
COc1ccc(CCCc2nnc(SCC(=O)Nc3cccc(F)c3C)o2)cc1 | 20% | 7%
Cc1c(Cl)cccc1NC(=O)N1CCN(C2=Nc3ccccc3Oc3ccccc32)CC1 | ? | ?
CCc1nc(C#N)c(N2CCN(c3ccccc3)CC2)o1 | 8% | -3%
COc1ccc(CNC(=O)c2nn(-c3ccccc3C)nc2CO)cc1 | -9% | 8%
CCCC(=O)Nc1ccc2nc(SCc3ccc(C)cc3)sc2c1 | 2% | -6%
Cc1cc(OC(C)CCN2CCC(C(O)(c3ccccc3)c3ccccc3)CC2)ccc1Br (centres undefined) | 1% | -3%
N#CCCN(C(=S)Nc1ccc(SC(F)F)cc1)c1ccccc1 | 56%[activator] | 95%[activator]
Cc1cccc(OCCSc2nc3ccc(NC(=O)COc4ccccc4F)cc3s2)c1 | -6% | -12%
COc1ccc(-c2nc3cc(NC(=O)COc4ccccc4C)ccc3o2)cc1 | 136%&93%[activator] | -3%&7%
COc1cc2c(cc1OC)C(=O)C(Sc1nnc(-c3ccccc3F)o1)C2 (centres undefined) | 7% | 17%
CCCN1CCC(Nc2nc(-c3cccnc3)nc3ccccc23)CC1 | -21% | -19%
COc1cccc(C(=O)Nc2ccc3oc(-c4cccc(Br)c4)nc3c2)c1 | 0% | 9%
CCOc1ccc(NC(=O)c2cc3sc(Cl)cc3n2CC)cc1 | 13% | -6%
COc1ccc(CCNC(=O)CCCCn2c(=O)c3ccccc3n(Cc3ccccc3C)c2=O)cc1OC | 44%[activator] | 40%[activator]
Cc1nc2c(C(=O)NC(C)c3ccccc3)cnn2c(C)c1Cc1ccccc1 (centres undefined) | ? | ?
CC(C)n1c(=O)n(CCCO)c(=O)c2c3c(sc21)COC(C)(C)C3 | 24% | 17%
COc1cccc(N2CCN(C(=O)c3cc4c(=O)n(Cc5ccco5)ccc4nc3C)CC2)c1 | 10% | 22%
COc1ccccc1-c1c(C)oc2cc(OC(=O)c3ccccc3)ccc2c1=O | 14% | -12%
Cc1ccc(-n2c(=O)c3ccc(C(=O)NCc4ccccc4Cl)cc3n(Cc3ccccc3F)c2=O)cc1 | 25% | 13%
O=C(NCC12CC3CC(CC(C3)C1)C2)c1ccc(Cl)c([N+](=O)[O-])c1 | 6% | 59%[activator]
COc1ccc(C)cc1CN(C)Cc1ccc(C#N)cc1 | 0% | 12%
Cc1ccc(Nc2nc(C(=O)OCC(=O)c3ccccc3)cs2)cc1 | 34% | -3%
COc1ccc(-c2cc(C(F)(F)F)nc(NCc3ccc(Cl)cc3)n2)cc1 | -18% | -1%
CCCn1nc(C(=O)Nc2ccc(C(C)(C)C)cc2)c2ccccc2c1=O | 24% | -3%
CC(C)N1CCC(Nc2nc(-c3cccs3)nc3ccccc23)CC1 | -5% | -20%
CCCCn1nc(C(=O)N2CCSCC2)c2ccccc2c1=O | -6% | -8%
CN1C(C(=O)NCc2ccc(F)cc2)=C(c2ccccc2)c2cc(Cl)ccc2S1(=O)=O | 21% | 13%
O=C(c1ccc(Cn2cc(Cl)cn2)cc1)N1CCN(Cc2cccc(C(F)(F)F)c2)CC1 | ? | ?

Some of the entries so far, field by field.
> COc1ccc(C)cc1CN(C)Cc1ccc(C#N)cc1
  2A firefly: 0%
  2A Renilla: 12%

> Cc1ccc(Nc2nc(C(=O)OCC(=O)c3ccccc3)cs2)cc1
  2A firefly: 34%
  2A Renilla: -3%

> O=C(c1ccc(Cn2cc(Cl)cn2)cc1)N1CCN(Cc2cccc(C(F)(F)F)c2)CC1
  2A firefly: ?
  2A Renilla: ?

(more compounds)
Structure | 2A firefly | 2A Renilla
Cc1ccc(NC(=S)NCCO)cc1 | 0% | 56%
Cc1ccc(Cc2nc3ccccc3nc2SCC(=O)N2CCN(c3ccccc3F)CC2)cc1 | -13% | -1%
COc1ccc(-c2cc(C(=O)Nc3c(C)nn(Cc4ccc(F)cc4)c3C)no2)cc1OC | -6% | -4%
COC(=O)c1ccccc1-n1c(CCC(=O)O)ccc1-c1ccccc1 | -15% | -8%
O=C1CC(C(=O)O)CN1 (centres undefined) | 4% | 7%
CNc1nc(Nc2ccc(C)c(C)c2)c2cnn(C)c2n1 | 23% | 2%
COc1ccccc1NC(=O)Cn1c(SCC(=O)NCc2ccccc2)nc2ccccc21 | 0% | -6%
O=S(=O)(NCCc1cn2ccccc2n1)c1ccccc1C(F)(F)F | 13% | 65%[activator]
COC(=O)c1c(SC)nc2ccccc2c1OCc1ccccc1Cl | -3% | 9%
CCOc1ccc(NC(=O)C2CCN(S(=O)(=O)c3c(C)noc3/C=C/c3c(C)cc(C)cc3C)CC2)cc1 | -17% | -2%
CC1CCCCC1NC(=O)C(c1ccccc1)c1ccccc1 (centres undefined) | -4% | 0%
CC(Cc1c[nH]c2ccccc12)C(=O)Nc1ccc(F)cc1 (centres undefined) | 13% | -4%
N#Cc1c(SCC(N)=O)nc2c(c1C(F)(F)F)CCCC2 | -3% | -9%
COc1ccccc1C(=O)COC(=O)Cc1ccc(Cl)cc1Cl | 12% | 52%[activator]
N#CC(C(=O)C1CCCCC1C(F)(F)F)c1ccc(C(F)(F)F)cn1 (centres undefined) | ? | -15%[1.06 µM]
CSc1ccc(-c2nc3cc(C)ccn3c2Nc2ccc(C)cc2)cc1 | 139%[activator] | 17%
COC(=O)c1scc(-c2ccc(C)cc2)c1S(=O)(=O)Nc1cc(C)c(Cl)cc1OC | -8% | 167%[activator]
CCOC(=O)N1CCc2c(sc3c2c(=O)n(-c2ccccc2C(F)(F)F)c(=O)n3Cc2ccccc2C)C1 | -22% | -20%
O=S(=O)(c1cccc(F)c1)N1CCN(c2nc(-c3cccnc3)nc3ccccc23)CC1 | -4% | -5%
Cc1ccc(NS(=O)(=O)c2ccc3c(c2)CCCN3C(=O)C2CCC2)cc1Cl | ? | 53%[activator]
CCOC(=O)c1c(NC(=O)c2ccc(C)c(C)c2)sc2c1CCCCC2 | 20% | -10%
C[C@]12CCC(=O)C=C1CC[C@@H]1[C@@H]2CC[C@]2(C)C(=O)CC[C@@H]12 | 32%[activator][11.5 µM] | -2%
C/C(=N/NC(=O)C1CC1)c1ccc(C)cc1 | 59%[activator] | 10%
O=C(Nc1ccc(C(F)(F)Cl)oc1=O)c1ccccc1 | 10% | -5%
O=C(NCCc1ccccc1)c1ccc(Cn2c(SCc3ccc(F)cc3)nc3cccnc32)cc1 | 91%[activator] | -7%
COc1ccc(Cl)cc1NC(=O)c1sc2nc3n(c(=O)c2c1C)CCC3 | -9% | -8%
COc1ccc(Cc2nnc(Nc3ccc4ccccc4c3)[nH]c2=O)cc1OC | 36%[activator] | -5%
